H5N1 CPE – MDCK cell protection from H5N1 avian flu. cytopathic effect, luminescence, 72 h; hits give high values; no value below 0 was filed and about half of the inactive calls have no number; reference of the scale not given here. inhibition, % at 50 µM. 96,000 compounds, 0.07% hits. AID 740; in the data active = inhibition above about 25%
Numbers without * were called inactive; i = inactive.

SMILES	H5N1 CPE
COCCn1c(-c2ccc(OC)cc2)cnc1SCC(=O)Nc1cccc2ccccc12	i
Cn1c(SCC(=O)NCc2ccccc2)nnc1C1CC1	0.6
CC1=C(C(=O)OCc2ccccc2)C(c2ccco2)n2ncnc2N1 (configuration not stated)	1.6
O=C(NCc1ccco1)c1ccc(Cn2cc([N+](=O)[O-])cn2)o1	2.8
Cn1c(=O)oc2cc(S(=O)(=O)N3CCN(c4ccccc4)CC3)ccc21	i
COc1ccc(-c2c(C(C)=O)c(C)nc3sc4c(=O)n(-c5ccc(C)cc5)nnc4c23)cc1	i
O=c1c2nnn(Cc3ccc(Cl)cc3)c2ncn1Cc1ccc(F)cc1	i
CS(=O)(=O)N(CCc1ccccc1)CC(=O)Nc1ccc2c(c1)OCO2	0.3
O=C(c1cccc(COCC(F)(F)C(F)F)c1)N1CCN(c2ccccc2)CC1	i
CCOC(=O)c1ccc(NC(=S)NCC(O)c2ccccc2)cc1 (configuration not stated)	i
Cc1c(NC(=O)c2n[nH]c(=O)c3ccccc23)c(=O)n(-c2ccccc2)n1C	1.0
O=C(CO)N/N=C/c1ccccc1F	0.5
O=C(c1ccc2ccccc2n1)N1CCN(c2ccccc2O)CC1	0.7
O=C(c1ccco1)N1CCN(c2c(-c3ccccc3)c3cc(Cl)ccc3[nH]c2=O)CC1	0.3
CSc1cccc(NC(=O)Cn2cccc2)c1	0.5
Cc1ccc(C(=O)Nc2ccccc2N2CCN(C(=O)C(C)C)CC2)cc1C	i
CC(C(=O)Nc1ccccc1Sc1ccccc1)N(c1ccccc1)S(C)(=O)=O (configuration not stated)	3.2
Cc1ccc(-c2cnc(NC(=O)CCC(=O)N3CCCCC3)n2C)cc1	i
CCOC(=O)c1cnc2c(N=Nc3ccccc3)c(N)nn2c1N	i
Cc1noc(C)c1CSc1nc2ccccc2n1C	i

Given with each value named: entries from further up
O=C(c1ccc2ccccc2n1)N1CCN(c2ccccc2O)CC1
- H5N1 CPE = 0.7

O=C(c1ccco1)N1CCN(c2c(-c3ccccc3)c3cc(Cl)ccc3[nH]c2=O)CC1
- H5N1 CPE = 0.3

Further records follow:
SMILES	H5N1 CPE
Cc1cc(C)n(C(=O)CSc2ccc(Cl)cc2)n1	1.2
Cc1cccc(Nc2nc(N)nc(CN3CCN(Cc4ccc5c(c4)OCO5)CC3)n2)c1	i
Cc1ccc(CNC(=O)C2CCC(=O)N2CCc2ccccc2)cc1 (configuration not stated)	i
COc1ccc(/C(O)=C2/C(=O)C(=O)N(CCCC(=O)O)C2c2ccc(OC)c(OC)c2)cc1 (configuration not stated)	0.7
CCCc1[nH]nc2c1C(CCc1ccccc1)C(C#N)=C(N)O2 (configuration not stated)	i
COCCOC(=O)C1=C(C)OC(N)=C(C#N)C1c1ccco1 (configuration not stated)	i
Fc1ccc(Oc2cc(N3CCOCC3)nc(-c3ccccc3)n2)c(F)c1	1.0
CCNC(=S)N(Cc1ccc(OC)cc1)C1CC(=O)N(c2ccc(OCC)cc2)C1=O (configuration not stated)	i
CCOC(=O)NC(Nc1nc2ccccc2s1)(C(=O)OCC)C(F)(F)F (configuration not stated)	0.6
O=C(NCCc1cn2ccsc2n1)C1CCCCC1	0.7
Cc1cccc(C)c1NC(=O)C(NC=O)c1ccc(N(C)C)cc1 (configuration not stated)	i
CC(=NCCN1CCOCC1)c1c(O)n(Cc2ccccc2)c(=O)[nH]c1=O	1.0
Cc1ccc(/C=N\NC(=O)Cn2c(C)nc3ccccc32)o1	0.2
CC(=O)c1c(N2CCC(C(N)=O)CC2)nc(=S)n(-c2ccccc2)c1C	i
CCOC(=O)c1nn(-c2ccccc2)c(=O)c2c(N)scc12	5.4
Cc1cc(C(F)F)n2nc(C(=O)Nc3ccc(S(=O)(=O)N4CCCC4)cc3)nc2n1	0.5
COc1ccc(C2C(C(=O)Nc3cccnc3)=C(C)Nc3nc(-c4cccs4)nn32)cc1OC (configuration not stated)	0.1
O=C1[C@@H]2Cc3ccccc3CN2C(=O)N1c1cccc(F)c1	0.3
C/C(=N\NS(C)(=O)=O)c1ccccc1	1.0
Cc1nonc1OC(C)CNc1ccc([N+](=O)[O-])cc1 (configuration not stated)	1.0
CCCc1cc2c(cc1NC(=O)c1ccc(Br)cc1)OCO2	i
COc1ccc(Cl)cc1Nc1nc(-c2sc(NC(=O)CC(C)C)nc2C)cs1	0.2
COC(=O)c1ccc(C)c(NC(=O)c2c(-c3ccccc3)noc2C)c1	1.3
COc1ccc(NC(=O)c2cc(C3CC3)on2)c(OC)c1	i
c1coc(CNc2nc3sc4c(c3c3ncnn23)CCCC4)c1	i
COc1cc2c(cc1NC(=O)COc1ccc3ccccc3c1)oc1ccccc12	i
O=C(/C=C/c1ccc(F)cc1)NCCC1=CCCCC1	1.4
S=C(Nc1ccccc1)N1CCCCCC1	2.1
O=C(CCSc1ccccc1)Nc1ccc(OCc2ccccc2)cc1	i
CC(=O)N1CSCC1C(=O)O (configuration not stated)	i
Cc1ccc2c(c1)NCC(C(=O)NC1CCCCC1)O2 (configuration not stated)	i
O=C(Cc1cccs1)N1CCN(C(=O)C2CCCO2)CC1 (configuration not stated)	1.6
O=C(CSc1ncccn1)Nc1ccccc1	i
CCS(=O)(=O)NCc1csc(-c2ccccc2)n1	i
COc1cccc(Cn2nnc(C(=O)NCc3ccccc3Cl)c2N)c1	i
OC(COCC1CC=CCC1)Cn1cnc2ccccc21 (configuration not stated)	0.7
Cc1c(NC(=O)c2cnn3c2NC(c2ccco2)CC3C(F)(F)F)c(=O)n(-c2ccccc2)n1C (configuration not stated)	i
O=C(OC1CCCCC1)c1ccc2c(c1)C1C=CCC1C(C(=O)O)N2 (configuration not stated)	i
CCOC(=O)N1CCN(C(=O)c2oc3ccc(S(=O)(=O)N4CCCCC4)cc3c2C)CC1	1.4
COc1ccc(C2CC(c3cc(Br)ccc3F)n3nnnc3N2)cc1 (configuration not stated)	0.7
CCNC(=O)CSc1nnc(-c2cccc(S(=O)(=O)N(CC)CC)c2)n1CCc1ccccc1	0.9
CC(C)C1N(c2ccccc2)C(N)=C(C#N)C1(C#N)C#N (configuration not stated)	i
CCC1(CC)NC(=O)N(CC(=O)OCC(=O)Nc2cc(C)ccc2C)C1=O	1.2
C=CCn1c(=NC(=O)CN2C(=O)CCC2=O)sc2cccc(OC)c21	0.7
CCC1CCc2c(c3ccccc3[nH]c2=O)O1 (configuration not stated)	2.1
Cc1ccccc1/[N+]([O-])=C/c1ccncc1	0.1
C[C@H](NC(=O)OC(C)(C)C)C(=O)NCC1CCC(C(=O)O)CC1 (some centres not stated)	0.4
CCC(C)NC(=O)c1c(N)n(/N=C/c2ccccn2)c2nc3ccccc3nc12 (configuration not stated)	i
CN(C)c1nc(Oc2ccc(=O)[nH]n2)nc(N2CCOCC2)n1	i
Cc1c(Cl)ccc2c1NC(=O)[C@]21N[C@@H](Cc2ccccc2)[C@H]2C(=O)N(c3ccc(F)cc3)C(=O)[C@H]21	i

An excerpt from above in order of length of the SMILES, falling.
SMILES	H5N1 CPE
Cc1c(Cl)ccc2c1NC(=O)[C@]21N[C@@H](Cc2ccccc2)[C@H]2C(=O)N(c3ccc(F)cc3)C(=O)[C@H]21	i
Cc1c(NC(=O)c2cnn3c2NC(c2ccco2)CC3C(F)(F)F)c(=O)n(-c2ccccc2)n1C (configuration not stated)	i
CCNC(=O)CSc1nnc(-c2cccc(S(=O)(=O)N(CC)CC)c2)n1CCc1ccccc1	0.9
CCC(C)NC(=O)c1c(N)n(/N=C/c2ccccn2)c2nc3ccccc3nc12 (configuration not stated)	i
CCC1(CC)NC(=O)N(CC(=O)OCC(=O)Nc2cc(C)ccc2C)C1=O	1.2
C[C@H](NC(=O)OC(C)(C)C)C(=O)NCC1CCC(C(=O)O)CC1 (some centres not stated)	0.4
C=CCn1c(=NC(=O)CN2C(=O)CCC2=O)sc2cccc(OC)c21	0.7
CN(C)c1nc(Oc2ccc(=O)[nH]n2)nc(N2CCOCC2)n1	i
COc1cccc(Cn2nnc(C(=O)NCc3ccccc3Cl)c2N)c1	i
CC(C)C1N(c2ccccc2)C(N)=C(C#N)C1(C#N)C#N (configuration not stated)	i
O=C(CCSc1ccccc1)Nc1ccc(OCc2ccccc2)cc1	i
O=C(Cc1cccs1)N1CCN(C(=O)C2CCCO2)CC1 (configuration not stated)	1.6
Cc1ccc2c(c1)NCC(C(=O)NC1CCCCC1)O2 (configuration not stated)	i
CCS(=O)(=O)NCc1csc(-c2ccccc2)n1	i
OC(COCC1CC=CCC1)Cn1cnc2ccccc21 (configuration not stated)	0.7
CCC1CCc2c(c3ccccc3[nH]c2=O)O1 (configuration not stated)	2.1
O=C(CSc1ncccn1)Nc1ccccc1	i
CC(=O)N1CSCC1C(=O)O (configuration not stated)	i

Going on with the list.
SMILES	H5N1 CPE
COc1cccc(C(=O)N2CCN(S(=O)(=O)Cc3ccccc3)CC2)c1	0.3
O=C(Cn1cnc2c(cnn2-c2ccccc2)c1=O)NCc1ccccc1	0.3
O=C(Oc1ccc2c(c1)OCC2=O)c1ccccc1	1.2
Cc1occc1-c1nnc(SCC(=O)NCc2cccs2)n1CC1CCCO1 (configuration not stated)	0.2
CCOc1cccc(NC(=O)C2CCCN(S(=O)(=O)c3ccc(-n4cnnn4)cc3)C2)c1 (configuration not stated)	1.0
OC1(CN2CCOCC2)C2CN3CCN(C2)CC1(c1ccccc1)C3 (configuration not stated)	0.1
CCC(=O)Nc1ccc2nc(C3CC3)n(Cc3ccccc3)c(=O)c2c1	i
CC(C)CNC(=O)CN(C1CCCCC1)S(C)(=O)=O	0.6
CC1C(=O)CCN(C(C)C)C1C (configuration not stated)	i
COc1cccc(-n2cc3c(=O)n(C)c(=O)n(C)c3c2)c1	1.5

Quoted from the listing:
For H5N1 CPE, `COc1cccc(-n2cc3c(=O)n(C)c(=O)n(C)c3c2)c1` shows 1.5
For H5N1 CPE, `O=C(Cn1cnc2c(cnn2-c2ccccc2)c1=O)NCc1ccccc1` shows 0.3

(cont.)
SMILES	H5N1 CPE
Cc1ccc(S(=O)(=O)N(C)c2ccc(C(=O)O)cc2)cc1	0.1
CC(=O)Oc1ccc2ccccc2c1C(NC(=O)Cc1ccccc1)c1ccc(Cl)cc1 (configuration not stated)	i
Cc1cc(C(=O)Nc2cccc3ncccc23)no1	i
Cc1ccc(Sc2ccc(NC(=O)c3ccc(S(C)(=O)=O)cc3Cl)cc2)cc1	i
COc1ccc(S(=O)(=O)NC(CC(=O)NCc2ccco2)c2ccco2)cc1 (configuration not stated)	0.2
COC(=O)c1ccc(C2C(Oc3ccc(OC)cc3)C(=O)N2CCc2ccc(F)cc2)cc1 (configuration not stated)	1.1
CCn1c(CCCOc2ccc(Cl)cc2Cl)nnc1SCC(=O)Nc1cccc(F)c1	i
CC1(C)NC(=O)N(CC(O)CNC23CC4CC(CC(C4)C2)C3)C1=O (configuration not stated)	1.5
C=CCOc1ccc(/C(O)=C2\C(=O)C(=O)N(CCOC)C2c2cccnc2)cc1 (configuration not stated)	1.6
Cc1ccccc1NC(=S)NN1CCN(C)CC1	i
CCC1(C)Cc2ccccc2-c2nc(NCCO)n(-c3ccc(C)cc3)c(=O)c21 (configuration not stated)	i
COc1ccc(Cn2nnnc2C(c2ccc(F)cc2)N2CCN(C3CCCC3)CC2)cc1 (configuration not stated)	0.7
COc1cccc(-c2nc(CS(=O)CC(=O)NCc3ccc4c(c3)OCO4)c(C)o2)c1 (configuration not stated)	1.0
CCC(=Nc1ccc2c(c1)CCC2)c1c(O)n(C2CCCCC2)c(=O)[nH]c1=O	i
CCOC(=O)N1CCN(c2ncnc3c2cnn3-c2ccc(Cl)cc2)CC1	i
COc1ccc(CCn2c(SCC(=O)Nc3cc(C)on3)nc3ccsc3c2=O)cc1OC	0.9
Cc1cccc(COc2ccc(/C(O)=C3\C(=O)C(=O)N(CCN(C)C)C3c3ccncc3)cc2)c1 (configuration not stated)	i
O=C(NCc1ccco1)C(c1ccncc1)N(CCC1=CCCCC1)C(=O)Cn1nnc2ccccc21 (configuration not stated)	i
CCOC(=O)C1=C(c2ccccc2)N=C2SCC(=O)N2C1c1ccc2c(c1)OCO2 (configuration not stated)	0.3
COC(=O)CN(c1nc(C)c(Cl)c(OC)n1)S(=O)(=O)c1ccc(C)cc1	1.5
COC(=O)c1[nH]c2cccc(OC)c2c1NC(=O)C(C)N1CCC(C)CC1 (configuration not stated)	i
CCOC(=O)c1[nH]c(C)c(C(=O)NCCc2ccc(OC)cc2)c1C	i
CCOC(=O)c1ccccc1NC(=O)c1ccccc1N(C)S(C)(=O)=O	1.4
Clc1ccc(CSCCc2ccncc2)cc1	1.1
CCOC(=O)c1cc(-c2nnc(-c3ccc(Oc4ccccc4)cc3)o2)c(C)nc1C	i
CNc1nc(OCCNC(=O)Nc2ccccc2)nc(N2CCOCC2)n1	0.2
O=C(COC(=O)c1cccnc1Cl)c1cccc(Cl)c1	i
CCOc1ccccc1C1SCC(=O)Nc2c1c(=O)[nH]n2C(CC)CC (configuration not stated)	i
O=C(O)c1cnc(-c2ccccc2)nc1Sc1cccc(Cl)c1	1.3
Cc1nc(NCCc2ccccc2F)c(C#N)c(C)c1[N+](=O)[O-]	i
Clc1ccc(/C=N/NC(=Nc2ccccc2)c2ccccn2)c(Cl)c1	i
Cc1ccc(NC(=O)CN(C)C(=O)CCCN2C(=O)c3ccccc3C2=O)cc1	0.3
COc1ccccc1NS(=O)(=O)c1ccc(NC(=O)CCNC(=O)c2ccco2)cc1	i
O=C1COc2ccc(C(=O)COC(=O)c3ccc4ccccc4n3)cc2N1	i
CCOC(=O)C1C(=O)C(C(C)=O)C(=O)CC1CC(C)SCC (configuration not stated)	i
CC1CCCCC1NC(=O)CN1CCC(O)(c2ccc(F)cc2)CC1 (configuration not stated)	i
CCOc1cc(C)c(Cl)cc1S(=O)(=O)N1CCCC1	1.2
CCCCCCC1CC(CCC(=O)Nc2ccc([N+](=O)[O-])cc2)C(=O)O1 (configuration not stated)	i
CSc1c(CC(=O)NCCO)n(C)c2ccccc12	i
Cc1n[nH]c(C)c1S(=O)(=O)N1CCCC(C(=O)N2CCN(c3ccc(Cl)cc3)CC2)C1 (configuration not stated)	2.8
Cc1cccc(C)c1NC(=O)CCCN1CC(C)OC(C)C1 (configuration not stated)	i
O=C(c1ccc(=O)oc1)N1CCN(C(c2ccccc2)c2ccccc2)CC1	i
O=S(=O)(NC1CCN(Cc2ccccc2)CC1)c1cccc2cccnc12	2.4

Screening data from PubChem BioAssay.

Only part of the results is shown (hit frequency here may not be typical).
